From PubChem BioAssay
RE007 growth inh = less growth of the S. pombe RE007 Vpr strain; S. pombe RE007 Vpr strain, BacTiter-Glo ATP luminescence, 24 h; control for the full effect not named in the record; Potency, µM (titrated, usually from 92.2 µM), without a hit: at the top dose activity change, negative = less growth; 0.21% of 360,000 active; AID 651644; active = well fitted falling curve with a large enough effect; inconclusive = small, poorly fitted or top-dose-only effect; inactive = no such curve, though single readings can be large or run the other way;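 also: % is scaled to controls: 0 for no effect and ±100 for the full control effect; nearly all actives have a fitted effect of over 50% in size; the assay follows cell death caused by Vpr and the record does not say whether a fall means rescue or toxicity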
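Fission yeast strain RE007, carrying one chromosomally integrated HIV-1 vpr copy, was seeded at OD 0.01 in PMG+AL medium with 23 nL pinned compound. After 24 h at 30 °C and 99% humidity, viability was read by BacTiter-Glo luminescence.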
LASV entry inh = blocks Lassa virus binding to or entry into cells. Lassa virus pseudotype entry inhibition, cell reporter; control for the full effect not named in the record. Potency, µM (doses to about 37.9 µM), for the others: top-dose activity change, negative = inhibition, usual class: inhibitors. 1.2% of 300,000 active. AID 540256; active means well fitted inhibition curve with a large enough effect; inconclusive means small, poorly fitted or top-dose-only effect, or effect the other way; inactive means flat fitted curve, though single readings scatter; tested in HEK293 cells; also: % is scaled to controls: 0 for no effect and ±100 for the full control effect; nearly all actives have a fitted effect of over 50% in size; luciferase read-out
Cruzain inh noDet = blocks cruzain activity in detergent-free assay; purified cruzain, Z-FR-AMC fluorescence, no detergent; P25779; 2.3% of 200,000 active; Potency, µM, inactives show max response, negative = inhibition, most hits filed as inhibitors;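 also: plate controls were enzyme without inhibitor for no effect and buffer without enzyme for full effect; nearly all actives have a fitted effect of over 40% in size; top concentration of the series not given in the record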
Target sequence (P25779 123-467 limits assumed): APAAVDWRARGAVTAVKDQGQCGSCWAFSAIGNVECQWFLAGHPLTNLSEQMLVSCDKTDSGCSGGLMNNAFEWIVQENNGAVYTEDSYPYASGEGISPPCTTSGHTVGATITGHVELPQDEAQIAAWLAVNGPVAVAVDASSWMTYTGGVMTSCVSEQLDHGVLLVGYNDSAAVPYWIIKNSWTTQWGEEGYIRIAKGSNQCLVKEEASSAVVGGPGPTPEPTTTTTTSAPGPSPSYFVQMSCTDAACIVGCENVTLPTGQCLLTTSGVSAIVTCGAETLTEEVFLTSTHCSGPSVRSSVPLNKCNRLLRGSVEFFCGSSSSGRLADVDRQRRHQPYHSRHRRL
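Purified cruzain at 1.5 nM, pre-incubated 15 min with compound at room temperature in 100 mM sodium acetate pH 5.5, 5 mM DTT, 0.00005% Triton X-100. Reaction started with 2 uM Z-FR-AMC; AMC fluorescence increase over 60 s gives rate.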
2A StopGo = lowers the luciferase signal of an FMDV 2A StopGo reporter | human cells with a luciferase reporter of 2A StopGo recoding; control for the full effect not named in the record | Potency, µM (titrated, usually from 57.9 µM), without a hit: at the top dose signal change, negative = less light | 1.2% of 410,000 active | AID 1159524; active = well fitted falling curve with a large enough effect; inconclusive = small, poorly fitted or top-dose-only effect; inactive = no such curve, though single readings can be large or run the other way; tested in HEK293T cells; also: % is scaled to controls: 0 for no effect and ±100 for the full control effect; nearly all actives have a fitted effect of over 45% in size; luciferase light after 4 h
NS1 function inh = blocks influenza NS1 protein function. 0.4% of 270,000 active. Potency, µM (titrated, usually from 46.1 µM), inactives show at the top dose activity, positive = more growth. S. cerevisiae slowed by influenza A NS1, growth recovery by OD600; active means well fitted rising curve with a large enough effect; inconclusive means small, poorly fitted or top-dose-only effect; inactive means no such curve, though single readings can be large or run the other way; also: nearly all actives have a fitted effect of over 50% in size
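Growth recovery, yeast-based: influenza A NS1 expressed in S. cerevisiae causes slow growth, and suppressors are detected by OD600. The parent strain without NS1 is used as positive control.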
Cruzain Triton = cruzain (T. cruzi) inhibition with detergent. 0.43% of 200,000 active. purified cruzain, Z-FR-AMC fluorescence, 0.01% Triton. AID 1478. Potency, µM, without a hit: max response, negative = inhibition, hits mostly inhibitors;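 also: plate controls were neutral wells for no effect and buffer without enzyme for full effect; nearly all actives have a fitted effect of over 40% in size; top concentration of the series not given in the record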
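Cysteine protease activity tested under reducing, mildly acidic conditions (100 mM sodium acetate pH 5.5, 5 mM DTT) plus 0.01% Triton X-100. Cruzain 1.5 nM; substrate Z-FR-AMC 2 uM; 15 min compound preincubation at room temperature.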
MARV entry inh = blocks Marburg virus binding to or entry into cells | Marburg virus pseudotyped entry inhibition, cell reporter; control for the full effect not named in the record; about a third of the inactives were read at about 46 µM | Potency, µM (doses to about 37.8 µM), for the others: at the highest dose activity change, negative = inhibition, usual class: inhibitors | 1.8% of 300,000 active | AID 540276; active = well fitted inhibition curve with a large enough effect; inconclusive = small, poorly fitted or top-dose-only effect, or effect the other way; inactive = flat fitted curve, though single readings scatter; tested in HEK293 cells; about a fifth of its hits are not listed in these tables; also: % is scaled to controls: 0 for no effect and ±100 for the full control effect; luciferase read-out
SARS PLpro yeast = inhibitors of SARS-CoV papain-like protease in yeast. S. cerevisiae expressing SARS-CoV PLpro, growth rescue; control for the full effect not named in the record. Potency, µM (top dose mostly 32.9 µM), for inactives: top-dose activity, positive = growth rescue. 0.19% of 330,000 active; active means well fitted rising curve with a large enough effect; inconclusive means small, poorly fitted or top-dose-only effect; inactive means no such curve, though single readings can be large or run the other way; also: 0% is about no effect; nearly all actives have a fitted effect of over 55% in size; growth read by luminescence after 48 h
* marks the source's active call; other numbers are inactive results; ? = inconclusive; nt = not tested or not shown; & = joins results of further samples; [ ] = dose if it differs, or a comment. Unless noted, calls follow the shape of the dose curve; as a rule, active = well fitted curve in the direction sought with a large enough effect; inconclusive = small, poorly fitted or top-dose-only effect, or another doubt; inactive = no such curve, though single readings can be large; an effect the other way counts as inactive or inconclusive. Potency is read from the fitted curve at half-maximal effect.

SMILES	MARV entry inh	SARS PLpro yeast	Cruzain Triton	LASV entry inh	NS1 function inh	Cruzain inh noDet	RE007 growth inh	2A StopGo
Cc1c(Cl)cccc1NC(=O)C(=O)NCCc1csc2nc(-c3ccccc3F)nn12	nt	nt	7.6%	2%[46.1 µM]	nt	-16%	nt	-15%
COc1cccc(OC)c1C(=O)Nc1nnc(-c2ccc(F)cc2)s1	nt	4%	nt	nt	-39%	nt	-21%	8%
COc1ccc(OCc2nc3ccccc3[nH]2)cc1	?	-17%	4.1%	?	-62%	-1%	-3%	nt
COc1ccc(/C=C2\N=C(C)N(c3ccc(C(=O)O)cc3)C2=O)cc1OC	-37%	-10%	-9.8%	10%	-2%	-8%	61%	-7%
COc1cc(NC(=O)c2ccc(=O)[nH]n2)cc(OC)c1OC	-5%[46.1 µM]	2%	nt	18%[46.1 µM]	3%	nt	10%	0%
Cc1ccc(C)c(S(=O)(=O)N2CCCC2CNC(=O)C(=O)NC2CC2)c1 (stereo not given)	21%	2%	nt	-9%	nt	nt	0%	9%
COc1ccccc1C/C(N)=N/OC(=O)COc1cccc(C)c1C	-1%[46.1 µM]	-1%	nt	2%[46.1 µM]	2%	nt	-24%	-3%
O=C(NCCCc1nc2ccccc2n1Cc1cccc(Cl)c1)C1CCCCC1	?	nt	-10%	?	nt	2%	nt	-24%
CCOC(=O)c1nn(-c2ccccc2)c(C#N)c1N	2%[46.1 µM]	-1%	nt	30%[46.1 µM]	-4%	nt	5%	-2%
CCOC(=O)C(=NC1CCS(=O)(=O)C1)NNc1ccccc1Cl (stereo not given)	nt	-1%	nt	nt	-46%	nt	2%	18%
COc1cc(Cl)c(C)cc1NC(=O)Cc1ccc(OC)c(OC)c1	-11%[46.1 µM]	-2%	nt	-15%	-5%	nt	5%	?
CCOc1ccc(NC(=O)c2cc3cc(C)ccc3n2C)cc1	-15%[46.1 µM]	nt	-2.6%	1%[46.1 µM]	nt	-1%	nt	5%
CCOc1ccc(NC(=S)N2CCN(S(C)(=O)=O)CC2)cc1	11%	?	nt	-6%	-1%	nt	-9%	0%
Cc1ccc(Sc2cc(C(F)(F)F)nc(N(C)C)n2)cc1	27%	-2%	7.3%	16%	0%	?	-1%	-1%
Cc1cccc(-c2cc(C(=O)Nc3ccc4c(c3)OCCO4)c3ccccc3n2)c1	-29%	-12%	2.4%	-24%	13%	32µM*	-9%	0%

Among those listed so far, these have an NH in an aromatic ring.
SMILES	MARV entry inh	SARS PLpro yeast	Cruzain Triton	LASV entry inh	NS1 function inh	Cruzain inh noDet	RE007 growth inh	2A StopGo
COc1ccc(OCc2nc3ccccc3[nH]2)cc1	?	-17%	4.1%	?	-62%	-1%	-3%	nt
COc1cc(NC(=O)c2ccc(=O)[nH]n2)cc(OC)c1OC	-5%[46.1 µM]	2%	nt	18%[46.1 µM]	3%	nt	10%	0%

The list continues.
SMILES	MARV entry inh	SARS PLpro yeast	Cruzain Triton	LASV entry inh	NS1 function inh	Cruzain inh noDet	RE007 growth inh	2A StopGo
Cc1ccc2c(=O)c(C(=O)c3ccccc3)cn(CC(=O)Nc3ccccc3C)c2n1	nt	nt	0.1%	?	nt	-6%	nt	-11%
COc1cc(NC(=O)CCn2cnc3ccccc3c2=O)cc(OC)c1	nt	nt	-1.0%	18%[46.1 µM]	nt	-9%	nt	-14%
CCOC(=O)C1=C2c3ccc4ccccc4c3CC(C)(C)N2C(=O)C1=O	14%	3%	-5.3%	2%	?	11%	0%	-6%
CC1=C(C(=O)OCc2ccccc2)C(c2ccc(C(F)(F)F)cc2)NC(=O)N1CCCCCC(=O)O (stereo not given)	-12%	-3%	-12%&-19%	-26%	-79%	?	1%	-27%
CCOC(=O)C1=C(C)Nc2nc(SCC)[nH]c(=O)c2C1c1ccncc1 (stereo not given)	10%	9%	-5.7%	22%	?	-8%	21%	-10%
O=C1NC(=O)N(Cc2ccco2)C(=O)/C1=C/c1ccc(-c2cccc([N+](=O)[O-])c2)o1	-12%	-14%	-7.6%	0%	-11%	0%	-2%	32µM*
Cc1ccsc1-c1nc(CN2CCN(C)C(=O)[C@@H]2C)c(C)o1	-15%[46.1 µM]	-1%	nt	6%[46.1 µM]	6%	nt	-2%	-3%
COc1cccc(Nc2nnc(SCC3CCCCO3)s2)c1 (stereo not given)	?	-7%	nt	?	nt	nt	3%	44%[activator]
Cc1ccc(C)c(N2CCN(C(=O)C3CCN(C(=O)c4cc5sccc5n4C)CC3)CC2)c1	?	nt	-9.7%	nt	nt	?	nt	?
CCC(C)NC(=O)C1CCC(=O)N1Cc1ccc(C)cc1 (stereo not given)	4%	13%	5.6%	11%	12%	-5%	3%	-19%
O=c1oc2c(CN3CCOCC3)c(O)c(Cl)cc2c2c1CCCC2	2%	-19%	28µM*	1%	-73%	?	1%	-1%
NC(=O)c1cc(-c2ccccc2)nc(N2CCOCC2)n1	?	-1%	-3.2%	-11%	1%	2%	11%	0%
O=[N+]([O-])c1cccc(CN2CCN(Cc3ccc(Cl)cc3)CC2)c1	-1%[46.1 µM]	-2%	nt	-21%	nt	nt	1%	?
O=C(c1cc(-c2ccc(Cl)cc2)on1)N(Cc1ccc(F)cc1)Cc1ccco1	3%[46.1 µM]	nt	-4.9%	-2%[46.1 µM]	nt	-2%	nt	-6%
Cc1cccc2cc(CN(C(=O)c3cccc(Cl)c3)c3ccccc3)c(=O)[nH]c12	9%[46.1 µM]	nt	-1.2%	-1%[46.1 µM]	nt	2%	nt	-16%
N#Cc1ccccc1OCC(O)CS(=O)(=O)c1ccccc1 (stereo not given)	26%[46.1 µM]	1%	nt	2%	0%	nt	-5%	18%
O=C(CCn1c(=O)c2cccn2c2ccc(F)cc21)NCCc1ccccc1	nt	2%	-3.0%	7%[46.1 µM]	-4%	15%	24%	-18%&5%
COCCCn1c(C)nc2c(c1=O)c1nc3ccccc3nc1n2CCc1ccccc1	18%&18%	-1%	2.1%	8%	12%	?	5%	?
Cn1cncc1C(=O)c1ccccc1	-3%[46.1 µM]	1%	nt	4%	0%	nt	9%	-10%
N#Cc1ccc(S(=O)(=O)N2CCC(N3CCCCC3)CC2)cc1	-8%[46.1 µM]	7%	nt	-4%	1%	nt	2%	-13%
Cc1ccc(S(=O)(=O)Nc2c(NC3CCCCC3)c3ccccc3oc2=O)c(C)c1	nt	-6%	nt	nt	10%	nt	-16%	0%
COC(=O)c1ccc(C(=O)OC)c(NC(=O)CSc2nc(-c3ccco3)cc(C(F)(F)F)n2)c1	22%	nt	nt	0%	5%	nt	5%	-6%
O=C(N/N=C/c1cc(Br)c(O)c(Br)c1O)c1ccc2c(c1)OCCO2	-28%[46.1 µM]	?	nt	?	-25%	nt	-4%	31%[activator]
Cc1ccc2nc(NCCCO)nc(-c3ccccc3)c2c1	-19%[46.1 µM]	10%	-4.7%	13%	-13%	1%	6%	-9%
CCOC(=O)c1c(C)c(C(=O)NCc2cccnc2)c(C)n1CC	1%	-1%	3.1%	-2%	-1%	-7%	-9%	-19%
Cc1cccc2nnc(-c3ccccc3)n12	-13%	nt	nt	8%	nt	nt	4%	3%
Cc1c([N+](=O)[O-])cc(C(=O)Nc2ccc(Cc3ccncc3)cc2)cc1[N+](=O)[O-]	-14%	5%	-7.0%	-2%	7%	?	-13%	?
NC(=O)c1cc(S(=O)(=O)N2CCN(c3cccc(Cl)c3)CC2)cs1	nt	-2%	nt	nt	3%	nt	1%	-15%
CC(OC(=O)C1CCN(S(=O)(=O)c2ccc(Cl)cc2)CC1)C(=O)N1CCc2ccccc21 (stereo not given)	?	1%	-1.0%	?	3%	7%	-7%	?
CCCN(CCC)S(=O)(=O)c1ccc(C(=O)NCc2ccco2)cc1	2%	11%	nt	0.79µM*	8%	nt	-3%	-6%
O=C(CSC(=S)N1CCCC1)c1ccccc1	nt	-1%	nt	nt	0%	nt	-2%	-10%
Cc1ccc(Oc2ccc(-c3nc(N)nc(N)n3)cc2)cc1	1%	-26%	-10%	-7%	-61%	14%	-20%	?
O=C(CN1C(=O)CSC1=O)NC1CCCCC1	-4%	3%	-2.7%	7%	1%	-6%	10%	-17%
CCCn1c(CN2CCN(C(=O)OCC)CC2)nc2cc(NC(=O)C(C)C)ccc21	nt	4%	nt	nt	-1%	nt	18%	-3%
COc1ccc2c3c([nH]c2c1)C1CC2C(CC(O)C(OC)C2C(=O)O)CN1CC3 (stereo not given)	nt	5%	nt	nt	-2%	nt	-7%	-24%
CCN(CC)CCCNC(=O)N[C@@H](Cc1ccccc1)C(=O)O	7%	7%	1.8%	7%	11%	1%	-7%	7%
COc1ccc(CCNC(=O)Cn2cnc3sc(C)c(-c4ccc(F)cc4)c3c2=O)cc1OC	?	-2%	nt	?	2%	nt	5%	-20%
COC(=O)c1ccc(CN2CCCC(C(=O)Nc3ccc(-c4ccn[nH]4)cc3)C2)cc1 (stereo not given)	-2%	-4%	nt	0%	-1%	nt	-3%	-4%
CCOC(=O)c1oc2ccccc2c1NC(=O)c1ccc2c(c1)OCO2	?	-7%	-8.2%	1%	-4%	8%	7%	-20%
O=c1c2ccccc2nnn1Cc1ccc2ccccc2c1	?	0%	nt	-3%	-1%	nt	10%	27%
CCOc1ccc(S(=O)(=O)Nc2ccc(C(=O)NCC3CCCO3)cc2)cc1 (stereo not given)	1%	1%	nt	?	-5%	nt	8%	-1%
O=C(c1ccco1)N1CCC(c2nc(-c3ccccc3Cl)no2)CC1	0%	-8%	-4.0%	2%	-64%	-3%	8%	-18%
CCCC(=O)Nc1ccc(N2CCOCC2)cc1	16%	-1%	-0.6%	?	2%	-6%	1%	37%
